V-ATPase pHluor = regulators of yeast V-ATPase proton transport. AID 504577. S. cerevisiae, pHLuorin cytosolic pH fluorescence. 350,000 compounds, 0.37% hits. response, % at 10 µM; in the data active = response mostly above about 7.3%, no sharp cut-off; inactive = mostly below about 5.4%; note: actives read high; inactives centre near 0; some compounds called inactive have numbers as strong as hits; reference of the scale not given here
Arrestin-AP2 inh = inhibitors of human beta-arrestin and AP2 interaction. FITC-arrestin peptide / GST-AP2 beads, flow cytometry; AP2 beta2 appendage carries R879A mutation. inhibition, % at 10 µM. 340,000 compounds, 0.31% hits;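 active = inhibition above a set limit, near 3 SD of compounds lacking own fluorescence, cut at about 54% in these data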;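 note: plate controls were DMSO wells for no effect and 5 µM unlabelled arrestin peptide for full effect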
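system = GST-tagged AP2 beta2-adaptin appendage (R879A) on 4 µm glutathione beads | reagent = FITC-labelled arrestin peptide probe, 50 nM final | schedule = compound with beads 12 min RT, then probe 1 h RT | signal = HyperCyt-sampled flow cytometry, FL1 channel, ex 488/em 535 nm | read-out = percent response from loss of bead-bound FITC fluorescence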
Pemphigus Ab inh = blocks pemphigus antibody binding to human desmoglein-3; DSG3-coupled beads, scFv-anti-DSG3-GFP binding, flow cytometry; active compounds read low; binding (percent of control), % at 10 µM; 310,000 compounds, 0.48% hits; AID 588358; P32926;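 active = binding more than 3 SD below its plate's average and above zero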;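 note: hits lower antibody fragment binding to DSG3; some compounds called inactive have numbers as strong as hits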
Target sequence (P32926 whole entry, looked up, the tested form may be a part): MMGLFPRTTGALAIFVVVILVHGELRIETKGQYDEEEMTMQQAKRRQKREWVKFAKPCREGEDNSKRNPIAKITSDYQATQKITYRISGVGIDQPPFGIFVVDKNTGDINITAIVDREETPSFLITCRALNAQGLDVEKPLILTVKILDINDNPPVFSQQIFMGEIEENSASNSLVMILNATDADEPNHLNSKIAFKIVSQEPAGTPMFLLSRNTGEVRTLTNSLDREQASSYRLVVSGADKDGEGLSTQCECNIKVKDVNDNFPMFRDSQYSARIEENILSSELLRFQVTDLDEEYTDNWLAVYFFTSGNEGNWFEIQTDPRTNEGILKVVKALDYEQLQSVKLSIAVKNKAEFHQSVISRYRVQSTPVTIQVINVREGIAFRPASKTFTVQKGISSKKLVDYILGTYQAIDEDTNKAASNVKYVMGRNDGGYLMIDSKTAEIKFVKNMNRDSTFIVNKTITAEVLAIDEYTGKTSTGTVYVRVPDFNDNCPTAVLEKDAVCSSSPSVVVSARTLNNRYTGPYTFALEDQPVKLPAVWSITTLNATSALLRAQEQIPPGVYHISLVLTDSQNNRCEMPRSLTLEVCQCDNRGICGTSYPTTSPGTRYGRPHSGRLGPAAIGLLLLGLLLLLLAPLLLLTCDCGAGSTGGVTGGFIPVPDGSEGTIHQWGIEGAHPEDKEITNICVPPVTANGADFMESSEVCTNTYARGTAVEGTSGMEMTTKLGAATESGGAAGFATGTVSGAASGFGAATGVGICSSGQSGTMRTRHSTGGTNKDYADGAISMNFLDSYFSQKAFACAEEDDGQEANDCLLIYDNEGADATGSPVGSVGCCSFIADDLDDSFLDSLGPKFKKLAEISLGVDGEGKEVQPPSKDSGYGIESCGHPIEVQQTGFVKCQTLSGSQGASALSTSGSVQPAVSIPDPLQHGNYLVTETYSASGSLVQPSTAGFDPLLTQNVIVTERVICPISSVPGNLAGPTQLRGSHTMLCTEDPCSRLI
PKA-R1A act = activates the PKA-R1A holoenzyme complex; 340,000 compounds, 0.083% hits; PKA-R1A dissociation, Cy5-IP20 fluorescence polarization; scaled: DMSO 0%, 113 µM cGMP 100%; activation, % at 11.4 µM;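 active = percent activation above the mean of all tested compounds plus 3 SD, cut at about 19% in these data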;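 note: higher means more PKAc released from R1A so a rise in polarization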
DAGLB inh = blocks human DAGLB lipase activity; 340,000 compounds, 0.059% hits; Q8NCG7; HEK293T DAGLB membrane lysate, EnzChek fluorogenic substrate; inhibition, % at 5.17 µM; in the data active = inhibition above about 34%;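 note: 0% = enzyme with vehicle and 100% = wells lacking enzyme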
PKA-R2B activ = activators of human PKA-R2B complex | P22694+P31323 | PKA-R2B holoenzyme dissociation, Cy5-IP20 fluorescence polarization; R2B truncated from residue 108, S112A mutant; 0% DMSO only, 100% 113 µM cGMP | activation, % at 11.4 µM | 340,000 compounds, 0.079% hits;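 active = activation above a cutoff set at the mean over all compounds plus 3 SD, cut at about 18% in these data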;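 note: higher means more holoenzyme dissociation and a rise in polarization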
Active calls of the source: *; & = joins results of further samples.

SMILES	V-ATPase pHluor	Arrestin-AP2 inh	Pemphigus Ab inh	PKA-R1A act	DAGLB inh	PKA-R2B activ
CSc1ccc2c(c1)C(N1CCN(C)CC1)Cc1ccccc1S2 (centres undefined)	-1&0	-4&-15	102	6&9	2&1	9&1
CCC1Nc2ncnc(N3CCN(c4ccccc4)CC3)c2N(Cc2ccc(Cl)cc2)C1=O (centres undefined)	-2	1	103	-10	4	-15
Clc1ccc2c(c1)C(N1CCNCC1)=Nc1ccccc1O2	-2	-3	105	0	2	0
O=C(CCCN1CCC(O)(c2ccc(Cl)cc2)CC1)c1ccc(F)cc1	0	3	53*	-6	2	-2
CC1CCN(CC[C@H]2CCCN2S(=O)(=O)c2cccc(O)c2)CC1	2	1	192	6	2	3
CCCCc1nc(Cl)c(CO)n1Cc1ccc(-c2ccccc2-c2nn[nH]n2)cc1	-4	13	105	-4	2	9
COc1ccc(OC)c(C(O)CNC(=O)CN)c1 (centres undefined)	-2	8	98	4	0	6
CN1CCN(C2=Nc3cc(Cl)ccc3Nc3ccccc32)CC1	-1	2	107	-9	1	7

3 compounds already listed, arranged by the value under V-ATPase pHluor, largest number first.
SMILES	V-ATPase pHluor	Arrestin-AP2 inh	Pemphigus Ab inh	PKA-R1A act	DAGLB inh	PKA-R2B activ
O=C(CCCN1CCC(O)(c2ccc(Cl)cc2)CC1)c1ccc(F)cc1	0	3	53*	-6	2	-2
CN1CCN(C2=Nc3cc(Cl)ccc3Nc3ccccc32)CC1	-1	2	107	-9	1	7
CCCCc1nc(Cl)c(CO)n1Cc1ccc(-c2ccccc2-c2nn[nH]n2)cc1	-4	13	105	-4	2	9

One compound at a time (already shown). Order of screens: V-ATPase pHluor, Arrestin-AP2 inh, Pemphigus Ab inh, PKA-R1A act, DAGLB inh, PKA-R2B activ
Shown for `Clc1ccc2c(c1)C(N1CCNCC1)=Nc1ccccc1O2` = -2, -3, 105, 0, 2, 0
Shown for `CSc1ccc2c(c1)C(N1CCN(C)CC1)Cc1ccccc1S2` (centres undefined) = -1&0, -4&-15, 102, 6&9, 2&1, 9&1
Shown for `CCCCc1nc(Cl)c(CO)n1Cc1ccc(-c2ccccc2-c2nn[nH]n2)cc1` = -4, 13, 105, -4, 2, 9
Shown for `CC1CCN(CC[C@H]2CCCN2S(=O)(=O)c2cccc(O)c2)CC1` = 2, 1, 192, 6, 2, 3

An excerpt; the hit share may differ from the screen's.
